# BJeLR lethal = kills HRASV12-expressing BJeLR cells; BJeLR (HRASV12) viability, CellTiter-Glo ATP luminescence, 48 h; reference of the scale not given here; inhibition, % (no concentration beside the values); actives 0.17% (n = 300,000);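 active = replicate mean above 50%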;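 also: 50 nL library stock added to about 25 µL; numbers are from one replicate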
# Mtb hypoxia rep = Mtb hypoxia fluorescent reporter inhibition. fluorescence inhibition, % (concentration not given with the values). M. tuberculosis hypoxia-regulated fluorescent reporter, fluorescence. actives 0.1% (n = 300,000);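 active = 35 to 45% if threefold the growth effect, above 45% if 1.5-fold the growth effect; inactive = the rest, general growth blockers included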;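 also: wells of about 50 µL received 100 nL stock; 0% = vehicle wells and 100% = reference inhibitor wells; whole bacteria with a GFP reporter of the hypoxia response; strong numbers were not always called active; many hits fall short of the cut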
# Sa ugtP lethal = kills S. aureus RN4220 lacking UgtP | growth inhibition, % (concentration not given with the values) | S. aureus RN4220 ugtP deletion, OD600 growth, 16 h; some inactives read as strong as hits | actives 0.54% (n = 330,000);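 active = z-score under -3 and OD600 up to 0.15 on both plates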;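 also: plate controls were untreated wells for no effect and antibiotic for full effect; wells of about 80 µL received 100 nL stock; the first replicate is given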
# PrP UTR inh = inhibition of PrP 5' UTR reporter expression. inhibition, % (no concentration beside the values). cell-based PrP 5' UTR mRNA reporter, plate reader. actives 0.35% (n = 340,000);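 active = every replicate at 50% or more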;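 also: 0 = median of the neutral control wells; tested in H4 reporter cells; numbers are from one replicate; inactives centre near -14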
# Sa RN4220 lethal = S. aureus RN4220 growth inhibition. OD600, 16 h. inhibition, % (concentration not given with the values). actives 0.33% (n = 330,000). AID 1259311;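 active = z-score of -3 or lower and OD600 up to 0.18 on both plates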;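 also: plate controls were untreated cells for no effect and reference antibiotic for full effect; stock transfer was 100 nL into about 80 µL; one replicate is shown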
# Autofluor counter = counter-screen for toxin protease inhibitors: compound fluorescence | compound autofluorescence counterscreen, microsphere flow cytometry; stronger effect = higher value | fluorescence intensity (concentration not given with the values) | actives 3.1% (n = 360,000) | AID 624483;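 active = at least 3 SD above the mean of all compounds, about 16000 in these data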;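 also: 100 nL of 1 mM stock went into each well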
# Mtb hypoxia rep growth = second read-out of Mtb hypoxia rep, no call of its own (marks repeat the call); growth inhibition, %; measured here: M. tuberculosis growth (absorbance);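 0% = vehicle and 100% = reference antibiotic; read after six days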
# Active calls of the source: *; . = no result given.
# Start of the listing, in advance, 2 compounds:
mol | Sa RN4220 lethal | Sa ugtP lethal | Mtb hypoxia rep | Autofluor counter | PrP UTR inh | Mtb hypoxia rep growth | BJeLR lethal
CC1Oc2ccccc2N(CC(=O)N(Cc2ccccc2)Cc2ccccn2)C1=O (stereo not drawn) | 4.9 | 7 | 5 | 23187* | -26 | 6 | 0
COC(=O)C1=C(c2cccc(C#N)c2)CC2CCC1N2C(=O)NCc1ccco1 (stereo not drawn) | 4.2 | 6 | 6 | . | . | 13 | .

# Main list, from the start:
mol | Sa RN4220 lethal | Sa ugtP lethal | Mtb hypoxia rep | Autofluor counter | PrP UTR inh | Mtb hypoxia rep growth | BJeLR lethal
CC1Oc2ccccc2N(CC(=O)N(Cc2ccccc2)Cc2ccccn2)C1=O (stereo not drawn) | 4.9 | 7 | 5 | 23187* | -26 | 6 | 0
COC(=O)C1=C(c2cccc(C#N)c2)CC2CCC1N2C(=O)NCc1ccco1 (stereo not drawn) | 4.2 | 6 | 6 | . | . | 13 | .
CN(CCC#N)CC(=O)Nc1ccc(S(N)(=O)=O)cc1 | 1.7 | 4 | 2 | 4511 | -14 | -1 | 1
Cc1ccc(S/C(=N\S(=O)(=O)c2ccc(Cl)cc2)c2ccccc2)cc1 | . | . | . | 11388 | -22 | . | -9
COc1ccc(C2C3C(=O)N(C(C)(C)C)C(=O)C3[C@]3(Cc4ccc(Cl)cc4)C(=O)N(c4cccc(F)c4)C(=O)N23)cc1 (stereo partly drawn) | 7.2 | -5 | 0 | . | . | 7 | .
Cc1ccc(S(=O)(=O)N(Cc2ccc(Cl)cc2)c2ccccc2C(=O)NCc2cccnc2)cc1 | 3.4 | -2 | 4 | 2468 | -18 | 3 | 10
CCS(=O)(=O)c1ccccc1C(=O)NC1CCCc2ccccc21 (stereo not drawn) | 0.1 | 0 | 0 | 3911 | -14 | -7 | -9
O=c1c2ccccc2nnn1CSc1nnnn1-c1ccc(O)cc1 | 4.3 | 8 | 3 | 4226 | -25 | -12 | 0
O=C(Nc1ccc(F)cc1F)NC1CCN(S(=O)(=O)c2ccc(F)cc2)CC1 | 0.9 | 1 | 4 | 3485 | -20 | -1 | -2
COc1ccc(Cc2nc(-c3ccncc3)no2)cc1 | -0.9 | -6 | 16 | 4114 | -10 | 9 | 13
Cc1cccc(-n2c(C)cc(/C=C3\C(=N)N4N=C(CC(C)C)SC4=NC3=O)c2C)c1 | 5.5 | 5 | 3 | 2622 | -17 | -2 | -3
COc1cc(CNC2CCCCC2)c(Br)cc1OC1CCCC1 | 3.0 | 11 | 7 | 4719 | -25 | -9 | 0
O=C(O)CC(NC(=O)C12CC3CC(CC(C3)C1)C2)c1ccc(Cl)cc1 (stereo not drawn) | 3.0 | -1 | 3 | 3940 | -20 | 0 | 2
CCOC(=O)NC(=O)/C(N=Nc1ccc(C(F)(F)F)cc1)=C(\C)O | -1.0 | -5 | -8 | 4058 | -48 | 3 | 4
COc1cccc(C(=O)ON=C2CCS(=O)(=O)c3sccc32)c1 | -1.7 | 9 | 5 | . | . | 6 | .
C[C@@H]1COC(=O)[C@H](CC(=O)OC(C)(C)C)C/C=C\C[C@@H](CC(=O)N[C@H](CO)Cc2ccccc2)C(=O)N1 | -6.7 | 5 | -2 | 3035 | -18 | -3 | .
CCOc1cc(C(=O)NN2CCOCC2)cc(OCC)c1OCC | 1.1 | 6 | 14 | 4021 | 7 | 7 | 2
CC(=O)N1CCc2cc(S(=O)(=O)NCCC(=O)Nc3cc(C)cc(C)c3)ccc21 | 4.4 | 3 | . | 4831 | -12 | . | -2
CCN(Cc1ccncc1)Cc1cn(C)nc1-c1ccc(Oc2ccccc2)cc1 | 4.5 | 17 | 5 | 4239 | 0 | -12 | -3
COC(=O)N(C)CCCC1(C)C(=O)N(C)c2ccc(O)cc21 (stereo not drawn) | 2.8 | -1 | -14 | 5532 | 2 | 8 | 4
CCCCn1c(N)c(N(CC(C)C)C(=O)CCNC(=O)c2ccc([N+](=O)[O-])cc2)c(=O)[nH]c1=O | -2.2 | 2 | -7 | 5041 | -22 | -5 | .
COc1ccc(N2C(=O)c3ccc(C(=O)Nc4ccccc4O)cc3C2=O)cc1 | -1.0 | 4 | 17 | 3282 | -8 | 6 | 3
O=C(N1CCOCC1)C(F)(F)C(F)(F)C(F)(F)C(F)(F)C(=O)N1CCOCC1 | 5.7 | 1 | 2 | 20612* | -53 | 10 | .
CC(C)c1nnc(NC(=O)C2CCCN2C(=O)Nc2ccc(F)cc2)s1 (stereo not drawn) | 0.3 | 2 | -5 | 6048 | -21 | -4 | 6

# Not a retest: five of the compounds above.
mol | Sa RN4220 lethal | Sa ugtP lethal | Mtb hypoxia rep | Autofluor counter | PrP UTR inh | Mtb hypoxia rep growth | BJeLR lethal
O=C(O)CC(NC(=O)C12CC3CC(CC(C3)C1)C2)c1ccc(Cl)cc1 (stereo not drawn) | 3.0 | -1 | 3 | 3940 | -20 | 0 | 2
CCOC(=O)NC(=O)/C(N=Nc1ccc(C(F)(F)F)cc1)=C(\C)O | -1.0 | -5 | -8 | 4058 | -48 | 3 | 4
COc1cccc(C(=O)ON=C2CCS(=O)(=O)c3sccc32)c1 | -1.7 | 9 | 5 | . | . | 6 | .
C[C@@H]1COC(=O)[C@H](CC(=O)OC(C)(C)C)C/C=C\C[C@@H](CC(=O)N[C@H](CO)Cc2ccccc2)C(=O)N1 | -6.7 | 5 | -2 | 3035 | -18 | -3 | .
CCOc1cc(C(=O)NN2CCOCC2)cc(OCC)c1OCC | 1.1 | 6 | 14 | 4021 | 7 | 7 | 2

# Given with values under each structure: entries from further up
# The line under a structure holds: Sa RN4220 lethal | Sa ugtP lethal | Mtb hypoxia rep | Autofluor counter | PrP UTR inh | Mtb hypoxia rep growth | BJeLR lethal
> COc1cccc(C(=O)ON=C2CCS(=O)(=O)c3sccc32)c1
 : -1.7 | 9 | 5 | . | . | 6 | .
> CC(C)c1nnc(NC(=O)C2CCCN2C(=O)Nc2ccc(F)cc2)s1 (stereo not drawn)
 : 0.3 | 2 | -5 | 6048 | -21 | -4 | 6

# Next part:
mol | Sa RN4220 lethal | Sa ugtP lethal | Mtb hypoxia rep | Autofluor counter | PrP UTR inh | Mtb hypoxia rep growth | BJeLR lethal
COc1ccc(C)cc1S(=O)(=O)N(C)CC(=O)NCc1ccncc1 | 8.1 | 12 | -12 | 2920 | -8 | 1 | -7
O=C(C1CCCCCC1)N1CC[C@@H](N2CCC(O)CC2)[C@H](O)C1 | -1.1 | 3 | 8 | . | -10 | -4 | 2
CCOC(=O)N1CCN(CCC(=O)c2ccc(Br)cc2)CC1 | 11 | 26 | 24 | 3931 | -17 | 10 | 4
COc1ccc(C(=O)N/N=C/c2ccccn2)cc1OC | . | . | . | 4737 | -11 | . | 6
COCCCn1c(SCC(=O)N2CCCCC2C)nnc1-c1ccco1 (stereo not drawn) | 5.2 | 10 | 5 | 16205* | -25 | 3 | 5
Cc1cc(C(=O)N2CCC3(CC2)OCCO3)cs1 | 0.5 | 10 | 8 | 21544* | -14 | 6 | 7
O=C(CN1C(=O)C(=O)N(Cc2ccco2)C1=O)NC1CCCCC1 | 2.7 | 1 | 5 | 4355 | -37 | -4 | -13
Cc1cccc(C)c1OCc1nnc(SCC(=O)Nc2ccccc2F)o1 | 6.2 | -9 | . | 5927 | -18 | . | 7
CCOc1ccccc1/C=C/C(=O)N1CCN(C(=O)c2ccco2)CC1 | 1.4 | 0 | 6 | 3232 | -8 | 3 | .
NC(N)=N/N=C/c1cccc(Cl)c1Cl | . | . | . | 4375 | -23 | . | -16
CCCOc1nc(SCCC)nc2c1cnn2-c1ccccc1 | -5.0 | 93* | -4 | 4501 | -26 | -1 | -1
O=C(CN(C(=O)CCC(=O)Nc1ccccn1)C1CCCC1)NCc1ccc(F)cc1 | 3.9 | 13 | 10 | 3224 | -33 | 10 | -3

# High-throughput results as filed in PubChem BioAssay.
